Hsc70 ATP site: small molecules displacing fluorescent ligand from Hsc70 – biochemical, fluorescence polarization, primary screen (AID 568); 83,000 tested, under 10 active; Hsc70 fluorescence polarization, probe displacement; higher % means a stronger effect; strong numbers were not always called active; displacement, % at 20 µM; hits with a dose series show IC50 in µM;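 active means displacement above 50% without optical interference and an IC50 on retest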;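 further: ATPase domain with a fluorescein-tagged ATP probe; 0% = vehicle and 100% = excess ADP; read after one hour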
MT1-MMP promoter: inhibitors of MT1-MMP promoter transcription, cell-based, luciferase reporter, luminescence (AID 618) | MT1-MMP promoter luciferase reporter cells, luminescence | calls from a first round at 10 µM; hits with a dose series show EC50 in µM | hit rate 0.62% among 87,000;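 active means over half of the reporter light lost at 10 µM or EC50 under 50 µM; inactive means the rest and hits that failed the dose series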;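 further: actives suppress MT1-MMP promoter-driven transcription so potencies describe inhibitors; HT1080 fibrosarcoma cells; overnight exposure; toxic or luciferase-blocking compounds were not removed from the actives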
WNV protease inh: blocks West Nile virus NS2B-NS3 protease activity. P06935. WNV NS2B-NS3 protease, fluorogenic substrate Ex360/Em465; active compounds read low. z-score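 (tested at a level between 10 and 100 µM)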. hit rate 0.18% among 65,000;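 active means z-score at -3 or under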;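 further: score is relative to mean and spread of the compound wells of a plate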
Target sequence (P06935 1371-1501 limits assumed): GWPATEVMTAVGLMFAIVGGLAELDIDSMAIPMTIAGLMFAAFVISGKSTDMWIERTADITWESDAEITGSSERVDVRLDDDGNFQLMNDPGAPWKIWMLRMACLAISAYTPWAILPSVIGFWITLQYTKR
Target sequence (P06935 1502-1679 limits assumed): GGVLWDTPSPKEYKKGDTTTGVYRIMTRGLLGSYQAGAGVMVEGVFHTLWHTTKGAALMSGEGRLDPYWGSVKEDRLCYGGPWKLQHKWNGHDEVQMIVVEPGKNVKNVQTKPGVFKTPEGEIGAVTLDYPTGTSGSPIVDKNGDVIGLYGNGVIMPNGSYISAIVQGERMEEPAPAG
Active calls of the source: *; i = inactive; / = not tested or not shown; & = joins results of further samples.

smiles | Hsc70 ATP site | MT1-MMP promoter | WNV protease inh
COC(=O)c1ccc(CSc2nc3c(cnn3-c3ccc(C)cc3)c(=O)[nH]2)o1 | -3.3% | i | 1
CCN(CC)C(=O)C1=C(C)NC(=O)NC1c1c(F)cccc1Cl (stereo unspecified) | 1.0% | i | 0.41
CCS(=O)(=O)N1CCC(C(=O)NCc2ccco2)CC1 | -1.7% | i | 0.25
CCOC(=O)N1CCN(S(=O)(=O)c2ccc3[nH]c(=O)sc3c2)CC1 | -6.8% | i | 0.7
CCc1c(O)cc2n(c1=O)-c1ccccc1C2(C)C | -2.8% | i | /
CC12C(=O)N(c3ccccn3)C(=O)C1C1C=CC2C1 (stereo unspecified) | 1.0% | i | -0.48
Cc1ccc2cccc(NC(=S)NC(=O)c3ccnn3C)c2n1 | 1.7% | i | /
CC(C)(C)n1nc2c(c1NC(=O)CCCc1ccccc1)CS(=O)C2 (stereo unspecified) | 1.2% | i | 0.7
COc1ccc(N2CCN(Cc3nc(-c4ccc(Cl)cc4Cl)no3)CC2)cc1 | -0.5% | i | 0.48
CCN(CCCNC(=O)CCn1c(=O)[nH]c2ccccc2c1=O)c1ccccc1 | -0.1% | i | -0.36
C=CCn1c(=O)/c(=C/c2ccc(F)cc2)s/c1=C(\C#N)c1nnc2n1CCCCC2 | 2.2% | i | -0.74
O=C(NC1CCCCC1)C1CCN(c2nnnn2-c2ccccc2)CC1 | 1.0% | i | 0.13
COC(=O)c1cn(NC(=O)c2ccncc2)c(=O)c2ccccc12 | -6.4% | i | 1.5
Clc1cccc(Nc2c3c(nc4ncnn24)CCC3)c1 | 2.6% | i | 1.6
COc1cc(OC)c(C(=O)Nc2ccc(S(=O)(=O)Nc3ncccn3)cc2)cc1OC | 3.4% | i | 1.1
COCCn1nnnc1C(c1cccs1)N1CCN(c2nc3ccccc3s2)CC1 (stereo unspecified) | -2.6% | i | 0.47
COC(=O)c1ccccc1NC(=O)Nc1cc(C)cc(C)n1 | -5.6% | i | -0.64
O=C(c1ccccc1)N(c1ccccc1)C1C=CS(=O)(=O)C1 (stereo unspecified) | 6.3% | i | 0.61
O=C(c1csc2c1CCCC2)N1CCN(c2ccccc2)CC1 | -1.5% | i | 0.15
CC(NC(=O)C1CCCN(S(=O)(=O)c2cnc[nH]2)C1)c1ccccc1 (stereo unspecified) | -1.9% | i | -0.21
COc1ccccc1-n1cnnc1SCC(=O)Nc1nc(C)c(Cl)cc1Cl | 2.1% | i | /
COc1ccc(OC)c2sc(NC(=O)c3ccc(S(=O)(=O)N(C)C)cc3)nc12 | 5.4% | i | -0.06
Cc1ccc(S(=O)(=O)Oc2ccc(C)cc2/C=N/N=C2\NC(=O)C(C)S2)cc1 (stereo unspecified) | 0.6% | i | /
CCC(C)NC(=O)CN(c1ccc2c(c1)OCO2)S(=O)(=O)c1c(C)n[nH]c1C (stereo unspecified) | -0.1% | i | -1.1
Cc1ccc(-c2noc(CCCN3C(=O)c4ccccc4C3=O)n2)cc1 | -1.1% | i | /

A draw from above in order of molar mass, high to low:
smiles | Hsc70 ATP site | MT1-MMP promoter | WNV protease inh
COc1ccccc1-n1cnnc1SCC(=O)Nc1nc(C)c(Cl)cc1Cl | 2.1% | i | /
COc1ccc(N2CCN(Cc3nc(-c4ccc(Cl)cc4Cl)no3)CC2)cc1 | -0.5% | i | 0.48
COC(=O)c1ccc(CSc2nc3c(cnn3-c3ccc(C)cc3)c(=O)[nH]2)o1 | -3.3% | i | 1
CC(C)(C)n1nc2c(c1NC(=O)CCCc1ccccc1)CS(=O)C2 (stereo unspecified) | 1.2% | i | 0.7
Cc1ccc(-c2noc(CCCN3C(=O)c4ccccc4C3=O)n2)cc1 | -1.1% | i | /
COC(=O)c1cn(NC(=O)c2ccncc2)c(=O)c2ccccc12 | -6.4% | i | 1.5

Continued.
smiles | Hsc70 ATP site | MT1-MMP promoter | WNV protease inh
CCOC(=O)c1ccc2c(c1)nc(SCC(=O)N1CCCCC1)n2CC | 2.8% | i | -0.93
Cc1cccc(OCC(O)CN2C(C)(C)CC(O)CC2(C)C)c1 (stereo unspecified) | 5.0% | i | 0.04
CCn1c(NCc2cc(OC)ccc2OC)nc2ccccc21 | -8.8% | i | -0.74
CCN(CC)c1ccc(N2C(=O)/C(=C\c3cccs3)SC2=S)cc1 | -1.3% | i | /
CCSc1cc(C2C(C#N)=C(N)OC(C)=C2C(=O)OC)c(C)o1 (stereo unspecified) | -6.6% | i | 1.1
O=C(NC1CCN(Cc2ccccc2)CC1)C1CCCN(c2nnc(-n3cccc3)s2)C1 (stereo unspecified) | 1.2% | i | -0.43
C=CCNC(=O)Nc1ccc(OCC)cc1 | -1.3% | i | -0.17
CC(C(=O)N1CCN(C=O)CC1)N1C(=O)c2ccccc2C1=O (stereo unspecified) | 0.8% | i | -0.79
CC(Sc1ccc2ccccc2n1)C(=O)O (stereo unspecified) | 3.6%&-0.1% | i | 0.53
COc1ccc(S(=O)(=O)N2CCC(N3CCN(c4ccccc4)CC3)CC2)cc1 | 4.5% | i | /
Cc1ccc2c(c1)N=C(c1ccc(F)cc1)CO2 | -3.3% | i | /
CCCCCCCCC/C(=N\O)c1ccccn1 | -3.2% | i | /
COc1ccc(/C(O)=C2\C(=O)C(=O)N(Cc3ccco3)C2c2cc(OC)ccc2OC)cc1 (stereo unspecified) | 0.8% | i | -0.43
CC1Cc2cc(/C(O)=C3/C(=O)C(=O)N(CCN4CCOCC4)C3c3cccc(O)c3)ccc2O1 (stereo unspecified) | -0.8% | i | 0.12
Cc1ccc(NC(=O)c2cc(-c3ccco3)on2)cc1C | 4.6% | i | -1.4
CCC(C)C(=O)N1CCc2cc(-c3csc(N)n3)ccc21 (stereo unspecified) | -5.8% | i | 2.7
COc1ccc(NC(C)=O)cc1NC(=O)CN1CCN(S(=O)(=O)c2ccc(C(C)C)cc2)CC1 | 2.3% | i | -0.78
CCOc1ccc(-c2nnc(SCc3nnc(-c4ccccc4)o3)n2-c2ccccc2F)cc1 | 5.8% | i | -1.4
O=c1c(Cc2ccccc2)c(O)nc2n1CCCS2 | 2.2% | i | /
O=C(c1ccc(Cl)cc1)c1cn[nH]c1-c1ccccc1O | -1.8% | i | /
O=C(c1ccc(F)cc1)C1CCN(C(=O)N2CCOCC2)CC1 | 17% | i | -0.8
Cc1nnc(NC(=O)c2ccc3c(c2)C(=O)N(CC2CCCO2)C3=O)s1 (stereo unspecified) | -7.9% | i | -0.7
O=C(CC12CC3CC(CC(C3)C1)C2)NCO | -2.2% | i | -0.13
COc1ccc(-c2ccc(SCC(=O)NCc3ccco3)nn2)cc1 | 1.6% | i | 1.3
COC(=O)c1ccccc1S(=O)(=O)N(CCCO)Cc1cc2c(C)ccc(C)c2[nH]c1=O | 2.7% | i | 0.04

smiles | Hsc70 ATP site | MT1-MMP promoter | WNV protease inh
CCc1cccc(NC2c3ccccc3C(=O)N2c2ccc(C)cn2)c1 (stereo unspecified) | 4.8% | i | 2.5
Cc1cc(Nc2cccc(Cl)c2C)n2ncnc2n1 | 0.2% | i | 0.23
Cc1cccc(C)c1NC(=O)CS(=O)CC(=O)NC1CCN(Cc2ccccc2)CC1 (stereo unspecified) | -0.9% | i | -0.65
Cc1ccc(-c2nc(NC(=O)CSc3nnc(C)s3)ns2)cc1 | 4.1% | i | -1.4
CCSc1ccccc1C(=O)Nc1cc(C)on1 | 4.9% | i | -0.62
CCOC(=O)C1CCCN(C2CC(=O)N(c3cccc(C(F)(F)F)c3)C2=O)C1 (stereo unspecified) | 0.8% | i | 1.6
Cc1cc(C(=O)CC#N)c(C)n1CC(F)(F)F | 1.2% | i | -0.95
O=C(Nc1ccc(Cl)cc1)N1CCC(c2nc(-c3cccs3)no2)CC1 | -4.8% | i | -2.2
Clc1ccccc1-c1nn2c(Cn3cnc4ccccc43)nnc2s1 | -2.1% | i | -0.76
CCCNc1nc2c(c(=O)[nH]c(=O)n2C)n1Cc1ccc(F)cc1 | -1.5% | i | 0.3
CC1(C(=O)O)Cc2ccccc2C(=O)O1 (stereo unspecified) | -0.7% | i | /
CCn1cc(C2=NOC(C(=O)Nc3c(C)nn(Cc4ccc(F)cc4)c3C)C2)c(C)n1 (stereo unspecified) | -0.8% | i | -0.11
O=C1CC(c2ccc(F)cc2)Cc2nc(NCC3CCCO3)ncc21 (stereo unspecified) | 0.5% | i | /
Cc1cc(Oc2ccccc2)nc(N2CCOCC2)n1 | -2.2% | i | /
Cc1cc(=O)oc(C)c1C(=O)NCC(C)C | -5.9% | i | 0.61
CCN(CC)C(=O)Oc1ccc(Cl)c2ccccc12 | 6.8% | i | 0.01
O=C(O)c1ccc2cccc(Cl)c2c1O | 7.0% | i | 2
Cc1ccc(C)c(-c2csc(N)c2C(=O)OC(C)C)c1 | 4.1% | i | /
O=C(NCc1ccc2c(c1)OCO2)C12CC3CC(CC(C3)C1)C2 | 6.1% | i | /
C=CCNC(=O)NC(=O)COC(=O)c1cccnc1SC | -2.7% | i | /
Cc1c(C(=O)N2CCCC2)sc(NC(=O)c2ccco2)c1C#N | -17% | i | /
c1ccc(N=C(c2cccs2)N2CCOCC2)cc1 | 2.6% | i | /
O=C(c1ncn[nH]1)N1CCN(c2nc(-c3ccccc3)cs2)CC1 | 2.5% | i | 0.74
O=C(Nc1ccc(Br)cc1)c1cnccn1 | -8.8% | i | -0.35
O=C(NCC1CCCO1)NC1(C(F)(F)F)Oc2ccccc2O1 (stereo unspecified) | -1.9% | i | -0.69

smiles | Hsc70 ATP site | MT1-MMP promoter | WNV protease inh
O=S(=O)(c1ccc(Br)cc1)c1nc(-c2ccccc2)oc1NCc1cccnc1 | -0.3% | i | /
Cn1c(=NC(=O)c2ccco2)sc2cccc(F)c21 | -3.1% | i | -0.21
Cc1ccc(C)n1Cc1ccc(C(=O)O)cc1 | 6.1% | i | 0.69
COc1ccc2c(=O)cc(-c3ccccc3)n(C)c2c1 | 3.2% | i | /
N#Cc1c(NC(=O)CSc2ncnc3c2cnn3-c2ccccc2Cl)sc2c1CCCC2 | -9.2% | i | 0.0042
O=C(Nc1nc2ccc(Cl)cc2s1)C1CCCO1 (stereo unspecified) | -0.7% | i | /
Cn1nnnc1SCC(=O)Nc1cc(C(C)(C)C)nn1-c1ccccc1 | -4.4% | i | -0.63
Cc1cc(OC(=O)c2ccc(S(=O)(=O)N(C)C)cc2)cc(=O)o1 | -4.4% | i | 0.36
O=C1c2ccccc2C(=O)N1CC1c2ccccc2CCN1C(=O)C1CCCCC1 (stereo unspecified) | -0.4% | i | /
c1ccc(-c2nn3c(Cn4nnc5ccccc54)nnc3s2)cc1 | 1.1% | i | -0.21
CCCCn1c(SCC(=O)Nc2nnc(C(C)C)s2)nc2c1c(=O)n(C)c(=O)n2C | -0.7% | i | 0.2
Cn1c(=O)[nH]c(=O)c2c1nc(CN1CCN(c3ccc(F)cc3)CC1)n2CCN1CCOCC1 | 5.0% | i | -0.89
Cc1ccccc1-n1c(SCC(=O)NCc2cccs2)nnc1-c1ccncc1 | -7.6% | i | 1
COc1ccc(-c2nnc(SCC(=O)c3ccc4c(c3)OCCO4)o2)cc1 | 2.2% | i | /
CC(=O)Nc1ccccc1-c1ccc(C)o1 | -6.2% | i | -0.63
O=C(CSc1nc2c(cnn2-c2ccc(F)cc2)c(=O)[nH]1)N1CCCc2ccccc21 | 3.0% | i | -0.95
COC(=O)C1=C(C)N(c2ccc(OC)c(OC)c2)C(=O)C1 | -2.5% | i | 0.01
COc1cc(CO)cc(Br)c1OCC(=O)O | 3.2% | i | 0.99
CCCc1nc2oc3c(NCc4ccccn4)ncnc3c2c2c1COC(C)(C)C2 | -2.0% | i | 2.8
Cc1cccc(-c2noc(Cc3ccc(Cl)cc3)n2)c1 | 0.8% | i | 1.8
CCN(CC)c1ccc(NC(=O)CSc2nc(C)cc(=O)[nH]2)cc1 | 1.6% | i | -1.6
CCOC(=O)c1c(NC(=O)CSc2nnc(CN3CCOCC3)n2C)sc2c1CCCC2 | -7.1% | i | -1.5
CCOC(=O)CSc1nc2ccccc2c(=O)n1CCN1CCOCC1 | 5.3% | i | -0.27
CCOC(=O)C1CCCN(c2c(NCCc3ccc(S(N)(=O)=O)cc3)c(=O)c2=O)C1 (stereo unspecified) | 3.9% | i | -0.8
C=CCn1c(SCC(=O)Nc2ccc(C(=O)OC(C)C)cc2)nnc1-c1cccs1 | -2.7% | i | -0.93

smiles | Hsc70 ATP site | MT1-MMP promoter | WNV protease inh
Cc1cc(NC(=O)c2ccc(N3C(=O)CCC3=O)cc2)no1 | 2.7% | i | /
OCCN1CCN(CCSc2ccccc2)CC1 | -1.1% | i | 0.47
CCOC(=O)c1[nH]c2ccccc2c1NC(=O)c1nonc1C | -4.6% | i | -0.4
CC(C)(CSc1nncn1/N=C/c1ccco1)NS(=O)(=O)c1ccc(Cl)cc1 | 4.2% | i | 0.57
CCOC(=O)N1CCN(CC(=O)Nc2cc(C)nn2-c2nc3ccccc3s2)CC1 | 0.5% | i | -0.63
C/C(Cl)=C/Cn1c(SCc2ccc(Cl)cc2)nc2c1c(=O)[nH]c(=O)n2C | -3.5% | i | -0.47
Nc1ccc2c(c1)C(=O)N(CCCCCC(=O)O)C2 | 0.7% | i | /
Cc1cc(=O)oc2cc(NC(=O)CCCC(=O)O)ccc12 | -1.9% | i | 0.48

Compound activity: PubChem, several laboratories

Only part of the results is shown (hit frequency here may not be typical).
